# Lassa entry inh = blocks Lassa virus binding to or entry into cells; AID 540256; Potency, µM (highest dose often 37.9 µM), inactives show top-dose activity change, negative = inhibition, most hits filed as inhibitors; 300,000 compounds, 1.2% hits; Lassa virus pseudotype entry inhibition, cell reporter; control for the full effect not named in the record; active means well fitted inhibition curve with a large enough effect; inconclusive means small, poorly fitted or top-dose-only effect, or effect the other way; inactive means flat fitted curve, though single readings scatter; tested in HEK293 cells; also: % is scaled to controls: 0 for no effect and ±100 for the full control effect; nearly all actives have a fitted effect of over 50% in size; luciferase read-out
# SARS PLpro yeast = inhibitors of SARS-CoV papain-like protease in yeast; S. cerevisiae expressing SARS-CoV PLpro, growth rescue; control for the full effect not named in the record; Potency, µM (top dose mostly 32.9 µM), inactives show at the highest dose activity, positive = growth rescue; 330,000 compounds, 0.19% hits; AID 485353; also: 0% is about no effect; nearly all actives have a fitted effect of over 55% in size; growth read by luminescence after 48 h
# RE007 growth inh = less growth of the S. pombe RE007 Vpr strain; S. pombe RE007 Vpr strain, BacTiter-Glo ATP luminescence, 24 h; control for the full effect not named in the record; Potency, µM (titrated, usually from 92.2 µM), for inactives: at the highest dose activity change, negative = less growth; 360,000 compounds, 0.21% hits; active = well fitted falling curve with a large enough effect; inconclusive = small, poorly fitted or top-dose-only effect; inactive = no such curve, though single readings can be large or run the other way;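 also: % is scaled to controls: 0 for no effect and ±100 for the full control effect; nearly all actives have a fitted effect of over 50% in size; the assay follows cell death caused by Vpr and the record does not say whether a fall means rescue or toxicity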
#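 Fission yeast strain RE007, carrying one chromosomally integrated HIV-1 vpr copy, was seeded at OD 0.01 in PMG+AL medium with 23 nL pinned compound. After 24 h at 30 °C and 99% humidity, viability was read by BacTiter-Glo luminescence.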
# Cruzain inh noDet = blocks cruzain activity in detergent-free assay. P25779. purified cruzain, Z-FR-AMC fluorescence, no detergent. Potency, µM, without a hit: max response, negative = inhibition, hits mostly inhibitors. 200,000 compounds, 2.3% hits; active = well fitted curve in the direction sought with a large enough effect; inconclusive = small, poorly fitted or top-dose-only effect, or another doubt; inactive = no such curve, though single readings can be large; an effect the other way counts as inactive or inconclusive;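 also: plate controls were enzyme without inhibitor for no effect and buffer without enzyme for full effect; nearly all actives have a fitted effect of over 40% in size; top concentration of the series not given in the record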
# Target sequence (P25779 123-467 limits assumed): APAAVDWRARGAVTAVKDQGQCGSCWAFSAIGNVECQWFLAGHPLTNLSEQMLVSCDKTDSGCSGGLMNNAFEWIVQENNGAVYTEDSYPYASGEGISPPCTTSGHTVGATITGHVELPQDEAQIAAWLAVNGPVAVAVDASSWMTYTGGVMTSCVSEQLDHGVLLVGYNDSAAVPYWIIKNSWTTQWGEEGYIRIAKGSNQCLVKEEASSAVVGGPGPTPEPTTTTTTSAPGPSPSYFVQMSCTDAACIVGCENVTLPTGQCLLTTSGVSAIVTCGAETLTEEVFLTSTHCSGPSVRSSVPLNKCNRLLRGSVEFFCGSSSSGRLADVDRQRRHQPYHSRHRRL
#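 Purified cruzain at 1.5 nM, pre-incubated 15 min with compound at room temperature in 100 mM sodium acetate pH 5.5, 5 mM DTT, 0.00005% Triton X-100. Reaction started with 2 uM Z-FR-AMC; AMC fluorescence increase over 60 s gives rate.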
# StopGo reporter = FMDV 2A StopGo reporter, luciferase signal | human cells with a luciferase reporter of 2A StopGo recoding; control for the full effect not named in the record | Potency, µM (top dose mostly 57.9 µM), without a hit: at the highest dose signal change, negative = less light | 410,000 compounds, 1.2% hits; active = well fitted falling curve with a large enough effect; inconclusive = small, poorly fitted or top-dose-only effect; inactive = no such curve, though single readings can be large or run the other way; tested in HEK293T cells; also: % is scaled to controls: 0 for no effect and ±100 for the full control effect; nearly all actives have a fitted effect of over 45% in size; luciferase light after 4 h
# Cruzain Triton = blocks cruzain activity in presence of Triton detergent | P25779 | purified cruzain, Z-FR-AMC fluorescence, 0.01% Triton | Potency, µM, for inactives: max response, negative = inhibition, actives largely listed as inhibitors | 200,000 compounds, 0.43% hits; active = well fitted curve in the direction sought with a large enough effect; inconclusive = small, poorly fitted or top-dose-only effect, or another doubt; inactive = no such curve, though single readings can be large; an effect the other way counts as inactive or inconclusive;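 also: plate controls were neutral wells for no effect and buffer without enzyme for full effect; nearly all actives have a fitted effect of over 40% in size; top concentration of the series not given in the record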
#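 Enzyme 1.5 nM, Z-FR-AMC 2 uM, NaOAc 100 mM pH 5.5, DTT 5 mM, Triton X-100 0.01%; 15 min RT compound preincubation; kinetic ex360/em450, 60 s delta.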
# MARV entry inh = inhibitors of Marburg virus binding or cell entry; Marburg virus pseudotyped entry inhibition, cell reporter; control for the full effect not named in the record; about a third of the inactives were read at about 46 µM; Potency, µM (doses to about 37.8 µM), without a hit: at the top dose activity change, negative = inhibition, usual class: inhibitors; 300,000 compounds, 1.8% hits; AID 540276; active = well fitted inhibition curve with a large enough effect; inconclusive = small, poorly fitted or top-dose-only effect, or effect the other way; inactive = flat fitted curve, though single readings scatter; tested in HEK293 cells; about a fifth of its hits are not listed in these tables; also: % is scaled to controls: 0 for no effect and ±100 for the full control effect; luciferase read-out
# NS1 inh = blocks influenza NS1 protein function; S. cerevisiae slowed by influenza A NS1, growth recovery by OD600; Potency, µM (top dose mostly 46.1 µM), for inactives: top-dose activity, positive = more growth; 270,000 compounds, 0.4% hits; AID 2326; also: actives are rising curves; nearly all actives have a fitted effect of over 50% in size
#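 A cell-based growth assay was used: compounds that relieve NS1-induced slow growth of budding yeast raise OD600. Assay medium was yeast nitrogen base with ammonium sulphate and -URA supplement, pH 6.0, with 2% galactose.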
# * marks the source's active call; other numbers are inactive results; ? = inconclusive; . = not tested or not shown; & = joins results of further samples; [ ] = dose if it differs, or a comment. Unless noted, calls follow the shape of the dose curve; as a rule, active means well fitted rising curve with a large enough effect; inconclusive means small, poorly fitted or top-dose-only effect; inactive means no such curve, though single readings can be large or run the other way. Potency is read from the fitted curve at half-maximal effect.
Structure,Lassa entry inh,SARS PLpro yeast,RE007 growth inh,Cruzain inh noDet,StopGo reporter,Cruzain Triton,MARV entry inh,NS1 inh
COC(=O)c1cc(C(=O)NCC2CCCCC2)cc([N+](=O)[O-])c1,-1.2%,-6.9%,-12.4%,.,12.0%,.,-5.6%[46.1 µM],-26.1%
Cc1c(Cl)cccc1NC(=O)C(C)n1c(=O)cc(C)c2c(C)nn(-c3ccccc3)c21 (configuration not stated),-11.5%[46.1 µM],.,.,-5.7%,-8.4%,-2.1%,.,.
COc1ccccc1CNC(=O)c1ccc(-c2nc(CS(=O)c3ccccc3)c(C)o2)cc1 (configuration not stated),-20.2%[46.1 µM],.,.,1.5%,0.0%,-3.4%,.,.
O=C(Nc1nnc(-c2ccncc2)o1)c1ccc(Br)s1,?,-4.7%,1.2%,.,83.8%[activator],.,8.91µM*,.
Cc1ccc(-c2nn(Cc3ccccc3)cc2/C=C/C(=O)O)cc1C,0.3%,14.6%,0.7%,-7.0%,-12.5%,-3.2%,11.5%,-68.6%
O=C(/C=C1\SC(=O)NC1=O)Nc1ccc(F)cc1,-27.8%,2.0%,2.9%,.,28.9%,.,-4.5%,.
Cn1c(SCC(=O)Nc2cccnc2Cl)nc2ccccc21,-3.2%,-0.5%,-13.8%,.,1.1%,.,-13.2%,.
COC(=O)C(Cc1c[nH]c2ccccc12)NC(=O)C1CC1 (configuration not stated),9.7%[46.1 µM],-2.2%,-2.9%,.,8.7%,.,?,0.1%
CC1(C)CC(=O)C2=C(C1)N(Cc1ccco1)C(=O)C2(NC(=O)C1CCCCC1)C(F)(F)F (configuration not stated),16.5%,5.6%,3.4%,10.5%,13.6%,3.2%,0.0%&0.0%,0.5%
Cc1nn(C)c(C)c1/C=N/NC(=O)c1csc2ccccc12,23.8%,-1.2%,3.3%,-2.1%,36.3%[activator],-1.5%,6.9%,1.4%
CCOC(=O)c1c(C)[nH]c(C)c1S(=O)(=O)N1CCN(c2cccc(C(F)(F)F)c2)CC1,9.9%[46.1 µM],.,.,?,-16.4%,-12.8%,.,.
FC(F)(F)c1cc(Cl)c2nnc(C(F)(F)Cl)n2c1,3.4%,0.2%,-22.0%,.,5.9%,.,-3.9%,-0.2%
Cc1ccc(Cn2c(N3CCN(CCO)CC3)nc3c2c(=O)n(C)c(=O)n3C)cc1,.,?,-16.9%,.,-10.2%,.,.,-2.1%
NC1=NC(=O)NC1(c1ccccc1)c1ccccc1,13.4%[46.1 µM],.,15.3%,.,-27.3%,.,-3.8%,.
Cc1ccc2[nH]c3c(=O)n(CCN4CCNCC4)cnc3c2c1,?,3.7%,4.2%,-12.3%,26.6%,-5.4%,-19.8%,12.8%
O=C(COC(=O)c1ccccc1NC(=O)c1ccco1)NCC1CCCCC1,2.1%,-12.2%,-7.6%,-12.8%,-17.5%,0.0%,-23.7%,1.8%
COc1ccc(Cl)cc1NC(=O)/C=C/C(=O)O,1.9%[46.1 µM],0.0%,-21.9%,.,-12.0%,.,?,-1.0%
CCCCCNC(=O)c1cn(CC)c2cc(N3CCN(C)CC3)c(F)cc2c1=O,-25.3%,1.9%,3.4%,.,-5.1%,.,?,-2.4%
Cc1cc(Cl)c(OCCOCCN2CCN(C)CC2)c(Br)c1,-28.6%[46.1 µM],1.6%,3.9%,.,-12.6%,.,?,3.7%
Cn1c(=O)c2sccc2n2c(CCCC(=O)NC3CCCCC3)nnc12,2.2%[46.1 µM],.,.,-1.7%,-9.3%,-0.1%,.,.
Cc1nc2c(C(=O)NCCc3ccc(Cl)cc3)c[nH]n2c(=O)c1Cc1ccccc1F,25.6%[46.1 µM],.,.,-23.8%,-16.5%,-11.2%,-1.1%[46.1 µM],.
Cc1ccc(C(=O)Nc2nc3n(n2)C(c2ccccc2)CC(=O)N3)cc1 (configuration not stated),-5.9%,0.8%,8.8%,.,-4.4%,.,2.5%,-3.9%
CCCn1c(SCC(=O)Nc2cccc(S(=O)(=O)NC3=NCCCCC3)c2)nc2ccccc2c1=O,-22.5%,4.5%,-7.5%,.,31.6µM*,.,?,.
Cc1nc(C(=O)NNC(=O)c2ccc(Cl)cc2)cs1,24.2%,-4.6%,-16.2%,.,29.3%,.,?,0.8%
Cc1ccc2c(c1)CC(C)N2S(=O)(=O)c1nnc(NC(=O)C(C)C)s1 (configuration not stated),5.0%[46.1 µM],.,.,13.1%,-7.1%,-0.6%,.,.
Cc1cc(NC(=O)Cn2cnc3c2c(=O)n(C)c(=O)n3C)n(-c2ccccc2)n1,22.4%,4.1%,-5.7%,-8.5%,0.0%,-0.8%,17.1%,5.2%
Cc1cc(C)nc(-n2nc(C)c3c2N(Cc2ccccc2C)C(=O)CC3c2ccc(Cl)cc2)n1 (configuration not stated),-6.3%[46.1 µM],.,.,?,-15.9%,-2.0%,8.2%[46.1 µM],.
NC(=S)N(c1ccccc1)c1ccccc1,8.6%,0.5%,0.5%,.,40.3%[activator],.,15.4%,-4.6%
N#Cc1ccc(C23CC4(C2)[C@H](CN(Cc2ccc(C(F)(F)F)cc2)[C@@H]4c2ccccc2)C3c2ccccc2)cc1 (some centres not stated),.,0.2%,11.3%,-27.6%,-14.8%,-0.8%,.,6.6%
Cc1cccc(NC(=O)c2cccc(S(=O)(=O)Nc3ccccc3C(=O)O)c2)c1,-1.5%[46.1 µM],1.3%,13.3%,.,20.3%,.,11.3%[46.1 µM],?

# Reprinted at random: 3 entries already listed, in no set order.
Structure,Lassa entry inh,SARS PLpro yeast,RE007 growth inh,Cruzain inh noDet,StopGo reporter,Cruzain Triton,MARV entry inh,NS1 inh
Cc1cc(NC(=O)Cn2cnc3c2c(=O)n(C)c(=O)n3C)n(-c2ccccc2)n1,22.4%,4.1%,-5.7%,-8.5%,0.0%,-0.8%,17.1%,5.2%
Cc1nc2c(C(=O)NCCc3ccc(Cl)cc3)c[nH]n2c(=O)c1Cc1ccccc1F,25.6%[46.1 µM],.,.,-23.8%,-16.5%,-11.2%,-1.1%[46.1 µM],.
NC(=S)N(c1ccccc1)c1ccccc1,8.6%,0.5%,0.5%,.,40.3%[activator],.,15.4%,-4.6%

# More compounds.
# Second line of a record: Lassa entry inh	SARS PLpro yeast	RE007 growth inh	Cruzain inh noDet	StopGo reporter	Cruzain Triton	MARV entry inh	NS1 inh
- Cc1cc2occ(CC(=O)N(C)CC(=O)Nc3c(C)cccc3C)c2cc1C
    -3.3%[46.1 µM]	4.9%	-12.5%	.	-13.5%	.	?	.
- COc1cccc(NC(=O)CN2CC(c3ccccc3)CC2=O)c1 (configuration not stated)
    .	?	4.1%	-5.9%	-2.0%	2.7%	.	-4.8%
- O=C(NCCCN1CCN(c2ccccc2F)CC1)C1CCC(=O)N1C1CCCCC1 (configuration not stated)
    -3.9%	-6.7%	2.3%	1.2%	.	2.7%	-3.6%	-4.9%
- CCCCCCC(=O)N/N=C/c1c(O)n(CCCC)c(=S)[nH]c1=O
    ?	1.1%	-4.3%	.	-18.1%	.	5.4%[46.1 µM]	0.0%
- CCC(=O)Nc1ccc(S(=O)(=O)NCC2CCCO2)cc1 (configuration not stated)
    5.3%	-2.7%	-1.3%	-3.7%	.	8.7%	13.0%	6.2%
- CCC(Sc1ncnc2sc3c(c12)CCCC3)C(=O)OCC(C)C (configuration not stated)
    -1.4%[46.1 µM]	.	.	-16.3%	?	-22.4%	3.2%[46.1 µM]	.
- O=C(CCCO)CCCCCCCCC[C@H]1N[C@H](CO)[C@@H](O)[C@@H]1O
    -4.4%	-1.3%	-3.2%	6.6%	1.9%	4.1%	2.6%	2.0%
- CCOc1ccc(C(=O)Nc2cccc(-n3cnnn3)c2)cc1OCC
    .	17.9%	20.0%	.	-3.9%	.	.	?
- CC1CC(CCN)(c2ccccc2)C(C)CN1C (configuration not stated)
    5.7%	1.4%	-13.1%	.	9.2%	.	3.98µM*	4.5%
- Cc1cc2[nH]cnc2c([N+](=O)[O-])c1C
    -5.5%	-2.2%	5.2%	.	8.4%	.	14.1%[46.1 µM]	0.6%
- O=C(Nc1ccncc1)c1ccc(NS(=O)(=O)c2ccc3[nH]c(=O)[nH]c3c2)cc1
    0.8%	0.2%	-11.6%	.	-7.1%	.	-0.9%	-3.0%
- O=C(CN1CCN(Cc2ccccc2Cl)C1=O)NCCc1ccc(Cl)cc1
    1.3%[46.1 µM]	.	.	11.1%	-15.6%	-2.8%	18.6%[46.1 µM]	.
- O=C1C2C3C=CC(C2C(=O)N1C1CCCCC1)C1C(=O)N(C2CCCCC2)C(=O)C31 (configuration not stated)
    -8.7%	4.1%	1.8%	2.0%	0.0%	2.2%	3.4%[46.1 µM]	3.3%
- Cc1cccc(-n2c(O)c(C)c(=O)[nH]c2=S)c1
    18.0%	0.9%	-18.9%	.	-8.0%	.	5.1%	5.6%
- CCN1CCN(C(=O)C(C)Nc2ccc(OC)cc2OC)CC1 (configuration not stated)
    4.1%[46.1 µM]	3.1%	-1.8%	.	-3.5%	.	0.7%[46.1 µM]	.
- COCCCNC(=O)CCc1c(C)nc2nc(-c3cc(OC)cc(OC)c3)nn2c1C
    10.1%[46.1 µM]	.	.	?	-5.1%	1.0%	14.1%[46.1 µM]	.
